Assay outcomes (PubChem)
HIV Env fusion: inhibitors of HIV Env-mediated cell fusion; HeLa-JRFL Env/CEM21 cell fusion, luciferase; inhibition, % at 12.3 µM; 1.1% of 360,000 active; AID 651610;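 active means mean replicate inhibition score of at least 50 and every replicate individually at or above 50; inconclusive means only one of the two criteria met; inactive means mean below 50 and not all replicates reaching 50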;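 further: 0% = plate neutral controls and 100% = maraviroc near 300 nM; one replicate is shown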
An asterisk follows results filed as active; u = inconclusive; [ ] = remark or other dose. A portion of the library (hit frequency here may not be typical).

SMILES	HIV Env fusion
CC(C)NC(=O)N[C@@H]1CC[C@H](CC(=O)NCCCN(C)C)O[C@H]1CO	1.0[16.7 µM]
CCS(=O)(=O)Nc1ccc2c(c1)C(=O)N(C)C[C@@H](OC)[C@H](C)CN(C(=O)c1ccc3c(c1)OCO3)[C@H](C)CO2	3.4[16.7 µM]
CCOc1cccc(C=NNC(=O)C(=O)Nc2cccc(C(F)(F)F)c2)c1O	0.1
CN1CCN(C(=O)[C@H]2[C@H](CO)[C@H]3Cn4c(ccc(C5=CCCCC5)c4=O)[C@@H]2N3S(C)(=O)=O)CC1	4.0[16.7 µM]
C[C@H](CO)N1C[C@H](C)[C@H](CN(C)S(=O)(=O)c2ccc(Cl)cc2)OCc2cn(nn2)CCCC1=O	-7.2[16.7 µM]
Cc1cc(Br)cn2c(Cc3cccc(Cl)c3)c(C3CCCCC3)nc12	14.0
Cc1[nH]nc2c1C(c1cccc(C(F)(F)F)c1)N(Cc1ccccc1)C2=O (stereo unspecified)	-5.7
COC(=O)Cc1nnn2c1[C@H](C)[C@H](C(C)(C)C)OCC2	u
CCN1[C@@H]2c3ccc(-c4ccncc4)c(=O)n3C[C@H]1[C@H](CO)[C@H]2C(=O)Nc1ccccc1	-16.4[16.7 µM]
C[C@H]1CN([C@@H](C)CO)C(=O)c2cccc(NS(=O)(=O)c3cccs3)c2O[C@@H]1CN(C)C(=O)Nc1ccccc1	-20.0[16.7 µM]
CO[C@H]1CN(C)C(=O)c2ccc(NC(C)=O)cc2OC[C@@H](C)N(C(=O)CN(C)C)C[C@@H]1C	-11.5[16.7 µM]
CNC[C@@H]1OCCCC[C@@H](C)Oc2ccc(N)cc2C(=O)N([C@@H](C)CO)C[C@H]1C	-16.3[16.7 µM]
C[C@H](CO)N1C[C@H](C)[C@@H](CN(C)S(C)(=O)=O)Oc2ccc(NC(=O)Nc3ccc(C(F)(F)F)cc3)cc2CC1=O	1.9[16.7 µM]
C#CCN1[C@H](/C=C/C2CC2)[C@H](Cc2ccccc2)OC(=O)[C@@H]1Cc1ccccc1	-12.1[16.7 µM]
CNC[C@@H]1Oc2ccc(NC(=O)Nc3ccccc3)cc2C(=O)N([C@H](C)CO)C[C@@H]1C	22.2[16.7 µM]
O=C1NC(Cc2ccc(O)cc2)c2nc3cc(F)ccc3c(=O)n2-c2cc(Cl)ccc21 (stereo unspecified)	1.5
Cc1cccc(S(=O)(=O)N[C@@H]2CC[C@H](CCNC(=O)c3cnccn3)O[C@H]2CO)c1	14.0[16.7 µM]
C[C@@H]1CN([C@H](C)CO)C(=O)c2cc(-c3ccncc3)cnc2O[C@H]1CN(C)C(=O)C1CCC1	-5.5[16.7 µM]
CC(C)CC1NC(=O)c2ccc(Cl)cc2-n2c1nc1ccc(F)cc1c2=O (stereo unspecified)	-8.3
COCCNC(=O)c1cc2c(c(-c3cccc(-c4cccc(F)c4)c3)n1)[C@H](CCO)N([S@@](=O)C(C)(C)C)C2	27.5[16.7 µM]
N#Cc1ccc(S(=O)(=O)N2CCCc3nc(-c4ccc(F)cc4)ccc32)cc1	32.3
COC(=O)c1c(-c2ccc(OC)cc2)c2c(c3c4cc(F)ccc4n(S(=O)(=O)c4ccc(C)cc4)c13)C(=O)N(C)C2	22.1
C[C@H]1CN([C@@H](C)CO)C(=O)c2cc(N(C)C)ccc2O[C@H]1CN(C)Cc1ccc(C(=O)Nc2ccccc2N)cc1	-7.9[16.7 µM]
CC(C)[C@@H](C)/C=C/[C@@H](C)[C@H]1CC[C@@H]2[C@]1(C)CCC1[C@]23C=C[C@]2(C[C@@H](O)CC[C@]12C)N(c1ccc(F)cn1)O3 (stereo partly specified)	-16.4
COc1ccc2c3c([nH]c2c1)[C@@H](CO)N(C(=O)c1ccncc1)CC31CCN(C(=O)Nc2cccc(F)c2)CC1	10.6[16.7 µM]
CCc1c(-c2ccccc2Br)ncn1CCc1ccccc1OC	5.4
C[C@H]1CN([C@@H](C)CO)C(=O)CCCn2cc(nn2)CO[C@H]1CN(C)Cc1cccc(C(F)(F)F)c1	19.3[16.7 µM]
Cc1cc2c(c(=O)o1)[C@@]1(C(=O)N(c3ccccc3)c3ccccc31)C1=C(CCCC1=O)O2	-24.6
C[C@H](O)[C@@H]1C(=O)N2CCc3c([nH]c4cccc(-c5ccccc5)c34)[C@@H]2C[C@@H]1N(C)C(=O)c1ccccc1	7.4
Cc1cc2c(nc1C)CCCN2S(=O)(=O)c1cccs1	3.3
C[C@H](CO)N1C[C@H](C)[C@@H](CN(C)C(=O)C2CCC2)Oc2cc(-c3ccccc3)ccc2S1(=O)=O	16.5[16.7 µM]
CO[C@@H]1CN(C)C(=O)c2cc(NS(=O)(=O)Cc3ccccc3)ccc2OC[C@@H](C)NC[C@@H]1C	-1.3[16.7 µM]
CCCN1CCCCC(NC(=O)c2ccccc2OC)C1=O (stereo unspecified)	-7.6
CCOC(=O)CNC(=O)N(C)[C@H]1C[C@H]2c3[nH]c4c(-c5ccccc5)cccc4c3CCN2C(=O)[C@H]1[C@H](C)O	-1.6
O=C(C[C@H]1CC[C@H]2[C@@H](COC[C@H](O)CN2Cc2ccccc2)O1)N1CCOCC1	5.3[16.7 µM]
C[C@H]1CN([C@@H](C)CO)C(=O)c2cccc(N(C)C)c2O[C@@H]1CN(C)C(=O)NC1CCCCC1	4.2[16.7 µM]
CC(C)NC(=O)Nc1ccc2c(c1)C(=O)N([C@@H](C)CO)C[C@@H](C)[C@H](CN(C)C)OCCCC[C@H](C)O2	-7.2[16.7 µM]
CC(C)C[C@H](NC(=O)c1ccccc1)C(=O)N1CCC[C@H]1C(=O)NCc1ccccc1	-3.3
Cc1ccc(S(=O)(=O)Nc2ccc3c(c2)C(=O)N([C@@H](C)CO)C[C@H](C)[C@@H](CN(C)Cc2ccc(C(F)(F)F)cc2)O3)cc1	-6.8[16.7 µM]
Cc1ccc(-c2ccc3c(c2)O[C@H](CN(C)C(=O)C2CCCCC2)[C@H](C)CN([C@H](C)CO)S3(=O)=O)cc1	-5.4[16.7 µM]
CNC[C@@H]1OCCCC[C@@H](C)Oc2ccc(N(C)C)cc2C(=O)N([C@H](C)CO)C[C@@H]1C	-1.2[16.7 µM]
O=C(C[C@H]1CC[C@H]2[C@@H](COC[C@@H](O)CN2CC2CCCCC2)O1)NCc1ccc(F)cc1	-18.3[16.7 µM]
C[C@H]1CN([C@@H](C)CO)C(=O)c2ccccc2-c2ccccc2CO[C@H]1CN(C)Cc1cccnc1	-6.1[16.7 µM]
CN1C(=O)c2cc(NC(=O)NC3CCCC3)ccc2OC[C@H]2O[C@@H](CC(=O)NC3CCC3)CC[C@@H]21	-11.1[16.7 µM]
CN(C)CC(=O)Nc1ccc2c(c1)[C@H]1C[C@H](CC(=O)NC3CCCCC3)O[C@@H](CO)[C@H]1O2	-1.1[16.7 µM]
C[C@H](CO)N1C[C@H](C)[C@@H](CN(C)S(=O)(=O)c2cccs2)OCc2ccccc2-c2ccccc2C1=O	3.1[16.7 µM]
CC(C)C[C@H](NC(=O)C1CCCC1)C(=O)N1CCC[C@H]1C(=O)NCc1ccccc1	7.5
Cc1ccccc1S(=O)(=O)N(C)C[C@@H]1OCc2ccccc2-c2ccccc2C(=O)N([C@@H](C)CO)C[C@@H]1C	38.0[16.7 µM]
C[C@H]1CN([C@@H](C)CO)C(=O)c2ccccc2-c2ccccc2CO[C@@H]1CN(C)C(=O)Nc1ccccc1C(F)(F)F	-14.2[16.7 µM]
COc1cccc(S(=O)(=O)Nc2ccc3c(c2)OC[C@@H](C)N(C(=O)Cc2cccnc2)C[C@H](C)[C@@H](OC)CN(C)C3=O)c1	2.8[16.7 µM]
C=CCN=C1NC(c2cccc(C(F)(F)F)c2)C(C(=O)OC)=C(C)N1Cc1ccccc1C(F)(F)F (stereo unspecified)	-10.2
CC(C)C(=O)Nc1ccc2c(c1)C(=O)N(C)[C@@H]1CC[C@H](CC(=O)NCCc3ccccc3)O[C@H]1CO2	-2.8[16.7 µM]
C[C@@H]1CN([C@H](C)CO)C(=O)Cc2cc(NS(C)(=O)=O)ccc2O[C@H]1CN(C)CC1CCCCC1	-1.9[16.7 µM]
CCOC(=O)C1=CCN(S(=O)(=O)c2ccc(Cl)cc2)C1c1ccc(Cl)c(Cl)c1 (stereo unspecified)	6.2
C[C@@H]1CN([C@H](C)CO)C(=O)Cc2cc(NS(C)(=O)=O)ccc2O[C@@H]1CN(C)Cc1ccc(-c2ccccc2)cc1	3.8[16.7 µM]
CC(C)NC(=O)Nc1ccc2c(c1)C(=O)N([C@@H](C)CO)C[C@H](C)[C@H](CN(C)C(=O)Nc1cccc3ccccc13)O2	-3.9[16.7 µM]
CCNC(=O)[C@H]1[C@H](CO)[C@H]2Cn3c(ccc(-c4ccc(OC)cc4)c3=O)[C@@H]1N2CC1CC1	4.1[16.7 µM]
CCN1C(=O)N[C@H]2C[C@H](C(=O)N3CCCC3)[C@H](C)[C@H](c3ccccc3)C[C@H]21	-11.6
C[C@H]1CN([C@@H](C)CO)S(=O)(=O)c2ccc(-c3ccc(F)cc3)cc2O[C@@H]1CN(C)Cc1ccccc1C(=O)O	-20.8[16.7 µM]
CNC[C@@H]1Oc2ncc(C#Cc3ccccc3F)cc2C(=O)N([C@H](C)CO)C[C@@H]1C	7.0[16.7 µM]
Continuation:
SMILES	HIV Env fusion
CN1CCN(C(=O)C[C@H]2CC[C@H](NC(=O)c3ccc4c(c3)OCO4)[C@H](CO)O2)CC1	3.2[16.7 µM]
COc1ccccc1NC(=O)Nc1ccc2c(c1)C(=O)N(C)C[C@@H](OC)[C@@H](C)CN[C@H](C)CO2	8.3[16.7 µM]
COc1cc2c(cc1OC)[C@@]1(c3ccccc3)CCCC[C@H]1[C@@H]2NC(=O)C(F)(F)F	-17.7
COc1ccc(CNC(=O)N(C)C[C@@H]2OCc3ccccc3-c3c(n(C)c4ccccc34)C(=O)N([C@@H](C)CO)C[C@@H]2C)cc1	100.2*
Cc1ccc(C2NC(=O)c3[nH]nc(-c4ccccc4)c32)cc1 (stereo unspecified)	-22.6
C[C@H](CO)N1C[C@H](C)[C@@H](CN(C)C(=O)Nc2ccc(C(F)(F)F)cc2)Oc2ccc(NS(=O)(=O)c3ccc(Cl)cc3)cc2C1=O	-3.0[16.7 µM]
C[C@@H]1CN([C@H](C)CO)C(=O)c2cccc(NC(=O)Nc3cccc4ccccc34)c2O[C@@H]1CN(C)Cc1ccc(-c2ccccc2)cc1	6.0[16.7 µM]
COC(=O)C1=C(C)N(Cc2ccccc2C(F)(F)F)C(=NCc2ccccc2)NC1CCc1ccccc1 (stereo unspecified)	-116.9
CO[C@@H]1CC[C@H]2CCOc3c(C#N)cccc3C(=O)N(C)C[C@@H](c3ccccc3)CC(=O)N(C)C[C@@H]1O2	25.7[16.7 µM]
CNC(=O)C[C@H]1CC[C@@H]2[C@@H](COc3ccc(NC(=O)Nc4cccc(F)c4)cc3C(=O)N2C)O1	-2.2[16.7 µM]
CN1C(=O)c2cc(NC(=O)Cc3cccs3)ccc2OC[C@@H]2O[C@H](CC(=O)NCc3ccc(-c4ccccc4)cc3)CC[C@@H]21	27.8[16.7 µM]
C[C@@H]1CN([C@H](C)CO)C(=O)c2cccc(N(C)C)c2O[C@@H]1CN(C)C(=O)NC1CCCCC1	2.6[16.7 µM]
CN(C)CC(=O)Nc1ccc2c(c1)[C@H]1C[C@@H](CC(=O)NCc3ccc(-c4ccccc4)cc3)O[C@H](CO)[C@H]1O2	19.8[16.7 µM]
C[C@@H]1CN([C@@H](C)CO)C(=O)c2c(c3ccccc3n2C)-c2ccccc2CO[C@H]1CN(C)C(=O)Nc1ccc2c(c1)OCO2	14.4[16.7 µM]
O=C(NCc1ccccc1)[C@@H]1CCCN1C(=O)[C@H]1CCCN1C(=O)N1CCCCC1	-21.9
CCN=C1NC(c2ccc(C(F)(F)F)cc2)C(C(=O)OC)=C(C)N1Cc1cccc(C(F)(F)F)c1 (stereo unspecified)	-44.3
CNC[C@@H]1OCCCC[C@H](C)Oc2ccc(NC(=O)CCC(F)(F)F)cc2C(=O)N([C@H](C)CO)C[C@@H]1C	-11.8[16.7 µM]
COc1ccccc1CN1C[C@H](C)[C@H](OC)CN(C)C(=O)c2cc(NC(C)=O)ccc2OC[C@@H]1C	-1.2[16.7 µM]
COc1ccc(C[C@H]2CCn3cc(nn3)COC[C@H](C(C)C)NC2=O)cc1	-8.5[16.7 µM]
